# Source: PubChem (Fisher Drug Discovery Resource Center)
# NPYLR7 agonist: mosquito NPYLR7 agonism; HEK293T NPYLR7/Galpha15, GCaMP6s calcium fluorescence; activation, % at 10 µM; actives 0.15% (n = 270,000); AID 1259423; in the data active = activation above about 40%;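 also: 0% = vehicle and 100% = reference agonist at the receptor; some compounds past the cut are filed as inactive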
# NPYLR7 agonist max-min: further read-out of NPYLR7 agonist, marked with its call; activation, %; measured here: Max-Min RFU normalised activation; some inactives read as strong as hits;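 span of the calcium signal over five minutes; 0% = vehicle and 100% = native peptide agonist; compound fluorescence can raise it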
# Active calls of the source: *; & = joins results of further samples.
no.	Compound	NPYLR7 agonist max-min	NPYLR7 agonist
1	CN1C(=O)C(=Cc2c(N3CCCC3)nc3ccccn23)C(=O)N(C)C1=O	-1	0
2	CCOc1ccc(N2CCN(C(=O)Nc3ccccc3)C(C)C2=O)cc1 (centres undefined)	19	23
3	C=CCCC(=O)Nc1sc(-c2ccccc2)cc1C(=O)OCC	-2	4
4	Oc1oc(-c2cccc3ccccc23)nc1C=Nc1cccc(C(F)(F)F)c1	-8	-1
5	CC(NC(=O)c1sc2ccccc2c1Cl)C(=O)N1CCOCC1 (centres undefined)	-3	-3
6	COc1ccc(OC)c(-c2cccc(-c3ccc(NC(=O)c4ccc(F)cc4C(F)(F)F)cc3)n2)c1	-8	-7
7	O=C(CSc1nc(=O)n(CC2CCCO2)c2c1CCC2)NC1CCCC1 (centres undefined)	-5	-3
8	CN(CC[C@@H](Oc1ccc(C(F)(F)F)cc1)c1ccccc1)CC(=O)O	-4	5
9	CCC1=NN(C(=O)c2ccc(Cl)cc2)C(O)(c2ccc(Br)cc2)C1 (centres undefined)	5	4
10	CN(C)CCN(Cc1ccc(F)cc1)C(=O)Nc1nnc(C(F)(F)F)s1	12	14
11	CCC(CO)Nc1nc(NCc2ccccc2)c2ncn(C(C)C)c2n1 (centres undefined)	0	5
12	CCOC(C)c1noc(CNC(=O)NCC2CC=CCC2)n1 (centres undefined)	10	12
13	C/C=C/c1c(F)c(F)c(Oc2ccc(C(=O)O)cc2)c(F)c1F	6	9
14	O=S(=O)(NCc1ccccc1)NCC(c1ccc(F)cc1)N1CCCC1 (centres undefined)	4	15
15	Cc1nc(SCCNC(=O)Cc2ccc3c(c2)OCO3)n[nH]1	1	2
16	CCN(CC)c1ccc2cc(-c3nnc(Nc4ccc(Oc5ccc6ccccc6c5Cl)c(Cl)c4)s3)c(=O)oc2c1	-1	-5
17	OCC1(O)CCCN(Cc2cccc(Cl)c2F)CC1 (centres undefined)	1	0
18	CCc1cn[nH]c1C1CCN(Cc2cc(OC)ccc2-n2cccn2)CC1	1	3
19	CCOc1ccc2nc(S(=O)(=O)NC(=O)C3(C)CCN3C(=O)c3sccc3C)sc2c1 (centres undefined)	0	0
20	CCN1CCC(N(C)C(=O)Nc2nccs2)CC1C (centres undefined)	-3	1

no.	Compound	NPYLR7 agonist max-min	NPYLR7 agonist
21	CC(C)c1nnc(SCc2ccccc2C#N)n1Cc1ccco1	-17	-16
22	CSC(=NCCCN1CCOCC1)NS(=O)(=O)c1cccs1	-4	-1
23	CCCCn1c(N)c(NCC)c(=O)[nH]c1=O	0	1
24	COc1ccc(N/N=C(/C#N)C(=O)c2ccccc2Cl)cc1	7	7
25	Cc1nn(Cc2ccccc2)c2c1C(c1cccc(O)c1)C(C#N)C(=N)O2 (centres undefined)	-7	-6
26	CCN1CCCCC1C(=O)N1CCC(n2nccc2NC(=O)CCCc2ccccc2)CC1 (centres undefined)	3	4
27	Cc1ccc(Sc2oc(/C=N\n3cnnc3)cc2Br)cc1	-14	-6
28	CCc1csc(CNC(=O)C2(c3ccc(F)cc3)CCOCC2)n1	11	18
29	CNC(=O)CC(C)N(C)C(=O)c1ccc2c(c1)CCC2 (centres undefined)	-9	-5
30	CCc1nc2n(n1)C(=O)C(C(c1ccc(C)cc1)N1CCN(CCO)CC1)S2 (centres undefined)	-11	-6
31	CCN(CC)S(=O)(=O)c1cccc(C(=O)N=Nc2c(O)n(CC(C)C)c3ccccc23)c1	1	10
32	CCNC(=O)NC(=O)C(C)OC(=O)c1cc(C)n(-c2cccnc2)c1C (centres undefined)	9	9
33	COC(=O)c1cc(S(=O)(=O)NC2CCCCCCC2)cn1C	-1	3
34	CCOc1ccc(C(=O)Nc2ccc(NC(=O)c3ccccc3)c(C)c2)cc1[N+](=O)[O-]	0	-3
35	Cc1nc(Cc2nnc(SCC(=O)c3cc(C)n(-c4ncn[nH]4)c3C)o2)cs1	-1	-2
36	CCn1c(C2CCCNC2)nn(Cc2cn3cccc(C)c3n2)c1=O (centres undefined)	3	6
37	Cc1ccc(-c2cnn3c(N4CCN(C)CC4)cc(C(C)(C)C)nc23)cc1	7	4
38	CN(Cc1ccon1)C(=O)c1ccc(OC2CCN(Cc3ccccn3)CC2)cc1	-4	-5
39	Cc1ccc(F)c(S(=O)(=O)NC(=O)C2(C)CCN2C(=O)c2cccc3ccccc23)c1 (centres undefined)	4	3
40	COc1ccc(-c2cc(C(=O)O)cc(S(=O)(=O)N3CCCC3)c2)cc1F	-2	-1

no.	Compound	NPYLR7 agonist max-min	NPYLR7 agonist
41	O=C(c1ccc([N+](=O)[O-])s1)N(Cc1cccnc1)c1nc2c(F)cccc2s1	-6	-7
42	O=C(OCCN1C(=O)c2ccccc2C1=O)c1ccccc1Cl	5	-9
43	CC1CCCCN1c1nnc(C(=O)NN2CCOCC2)c2ccccc12 (centres undefined)	4	6
44	COc1ccc(N(C(C)=O)c2nc(C=Cc3nc4ccccc4s3)cs2)cc1	9	1
45	CC1(C(=O)NS(=O)(=O)c2ccccc2)CCN1C(=O)CC1CCCCC1 (centres undefined)	4	9
46	CC(C)(C)c1cc2nc(C(=O)N3CCC(C(N)=O)CC3)cc(-c3ccccc3F)n2n1	11	1
47	CC(C)NC(=O)C1(C)CCN1Cc1ccc(-c2ccccc2)cc1 (centres undefined)	2	1
48	c1ccc(C(CCn2cnnc2)c2ccco2)cc1 (centres undefined)	0	3
49	CCCN(C(=O)c1ccc(Br)cc1)C(C)c1nc2ccccc2c(=O)n1Cc1ccccc1 (centres undefined)	27	31
50	Cc1nn(-c2ccc(F)cc2)c(C)c1[C@@H]1C=C[C@@H](NC(=O)c2ccco2)C1	-18	-12
51	O=C(Nc1ccccc1Oc1cccnc1)C1CCCN(C(=O)CN2CCCC2=O)C1 (centres undefined)	-1	2
52	COc1ccc(NC(=O)c2cc(=O)c(OC)cn2C)cc1	-3	-1
53	CN1C(=O)CC(C(=O)Nc2ccccc2)SC1=Nc1ccc(Cl)c(C(F)(F)F)c1 (centres undefined)	-5	-1
54	COc1cc(OC)c(OC)cc1/C=C/C(=O)NC(C)c1ccccc1 (centres undefined)	6	9
55	CC(=O)Nc1ccc(Nc2nnc(C)c(=O)[nH]2)cc1	0	3
56	Cc1ccc(S(=O)(=O)NCCC(N)=O)c(C)c1N(C)S(C)(=O)=O	-8	-4
57	COc1cccc(CN(C)Cc2nc(-c3cccs3)no2)c1	-2	0
58	COc1ccc(Cc2noc(Cn3cc4c(n3)CCC4)n2)cc1OC	1	6
59	COc1ccc(Br)cc1CN(C)CC(=O)Nc1cc(Cl)cc(Cl)c1	9	13
60	CC(CNC(=O)C(C)S(=O)(=O)Cc1ccc(Cl)c(Cl)c1)c1ccccc1 (centres undefined)	3	10

# Six compounds picked at random from those above:
no.	Compound	NPYLR7 agonist max-min	NPYLR7 agonist
45	CC1(C(=O)NS(=O)(=O)c2ccccc2)CCN1C(=O)CC1CCCCC1 (centres undefined)	4	9
54	COc1cc(OC)c(OC)cc1/C=C/C(=O)NC(C)c1ccccc1 (centres undefined)	6	9
47	CC(C)NC(=O)C1(C)CCN1Cc1ccc(-c2ccccc2)cc1 (centres undefined)	2	1
58	COc1ccc(Cc2noc(Cn3cc4c(n3)CCC4)n2)cc1OC	1	6
48	c1ccc(C(CCn2cnnc2)c2ccco2)cc1 (centres undefined)	0	3
56	Cc1ccc(S(=O)(=O)NCCC(N)=O)c(C)c1N(C)S(C)(=O)=O	-8	-4

# The listing continues.
no.	Compound	NPYLR7 agonist max-min	NPYLR7 agonist
61	COc1cccc(C(=O)NCCNc2cc(N3CCCC3)nc(C)n2)c1OC	1	4
62	O=C(c1ccccc1)N1CC[C@H](Nc2ccccn2)C[C@H](O)C1	13	3
63	COc1ccccc1Oc1cc(N2CCN(C(=O)COc3ccccc3)C(C)C2)ncn1 (centres undefined)	-3	-7
64	Cc1cccc(NC2=NC3(N=C(N)N2)C(=O)N(C)c2ccccc23)c1C (centres undefined)	1	-2
65	CC1(C)C(NC(=O)NCc2cccc(-n3ccnc3)c2)C2CCOC21 (centres undefined)	-14	-1
66	CCN(CC)c1ccc(NC(=O)NCCN2CCOC(C)(C)C2)cn1	-5	-4
67	CCOC(=O)c1nn(-c2ccccc2C)c(=O)cc1OS(=O)(=O)c1cc(OC)ccc1OC	-3	-5
68	CCCCn1c(N)c(N(CC(C)C)C(=O)C2CCC2)c(=O)[nH]c1=O	4	8
69	NC(=O)C1CN(C(=O)CCl)c2ccccc2O1 (centres undefined)	3	1
70	Cc1ccc(F)c(C(=O)N(C)CCC=C2c3ccccc3CCc3ccccc32)c1Cl	-24	-21
71	O=C(CSc1ccncc1)N1CCOC(Cc2ccccc2Cl)C1 (centres undefined)	10	20
72	CCOC(=O)C1C(=O)C=C(c2ccc(OC)cc2)CC1c1ccc([N+](=O)[O-])cc1 (centres undefined)	14	10
73	CCC(=O)Nc1ccc(SCc2ccc(C(=O)OC)o2)nn1	-8	2
74	O=C(NNC(=O)c1cccn(Cc2cccc(Cl)c2)c1=O)Nc1ccc(Cl)cc1	4	8
75	CCN1C(=O)OC2(CC(C)(C)NC(C)(C)C2)C1(C)O (centres undefined)	-3	2
76	CCCc1c(C(=O)N2CCCN(c3nc4cc(C)c(C)cc4nc3-c3ccccc3)CC2)cnn1-c1ccccc1	0	5
77	Cc1cc(C)cc(N=C2NC(=O)/C(=C/c3cc(Cl)ccc3O)S2)c1	-10	-7
78	CCn1c(C2CCCN(C(=O)CCn3nnc4ccccc43)C2)nn(C)c1=O (centres undefined)	-6	-4
79	CCCc1cc(=O)n(CC(=O)Nc2cccc(C(F)(F)F)c2)c(-n2nc(C)cc2C)n1	1	-1
80	Cc1cc(C)cc(C(=O)N(NC(=O)OCc2ccccc2)C(C)(C)C)c1	-3	-2

# Single records, from the list above. Values in the order: NPYLR7 agonist max-min, NPYLR7 agonist
# CC(NC(=O)c1sc2ccccc2c1Cl)C(=O)N1CCOCC1 (centres undefined) is listed as -3, -3
# NC(=O)C1CN(C(=O)CCl)c2ccccc2O1 (centres undefined) is listed as 3, 1
# Cc1ccc(F)c(S(=O)(=O)NC(=O)C2(C)CCN2C(=O)c2cccc3ccccc23)c1 (centres undefined) is listed as 4, 3

# Next part:
no.	Compound	NPYLR7 agonist max-min	NPYLR7 agonist
81	CCCCN(C1CC(C)(C)NC(C)(C)C1)S(=O)(=O)N1CCC(C)CC1	5	9
82	Cc1nc(NC#N)[nH]c(=O)c1Cc1ccccc1	-11	-8
83	CC(C)Cc1ccc(C(C)NC(=O)c2cccs2)cc1 (centres undefined)	6	0
84	CCc1nc(-c2nccn2-c2ccc3scnc3c2)c(C)[nH]1	8	19
85	COC(=O)c1cc(C2CC2)nc2c1c(-c1ccc(OC)cc1)nn2C1CCS(=O)(=O)C1 (centres undefined)	8	13
86	O=C(c1ccccc1OC1CCN(Cc2ccccn2)CC1)N1CCCC(CO)C1 (centres undefined)	6	7
87	COC1=CC2NC(=O)NC(=O)C2C=C1OC (centres undefined)	-11	-11
88	COc1ccc(CNc2c(C#N)cnc3ccc(Cl)cc23)cc1	-6	-1
89	Cc1ccc(-n2nnnc2SCC(=O)NC(C)c2ccco2)cc1 (centres undefined)	2	7
90	Cc1c(C(C)NC(=O)c2coc(COc3cccc(F)c3)n2)cnn1C (centres undefined)	5	9
91	Cc1ccc(S(=O)(=O)N2CCOCC2)c(C)c1NS(C)(=O)=O	28	16
92	Cc1ccc(NC(=O)COC(=O)CCCn2c(=O)oc3cc([N+](=O)[O-])ccc32)cc1C	-4	-2
93	Cc1sc2nc(C(C)C)nc(N3CCN(C(=O)c4cccc(C(F)(F)F)c4)CC3)c2c1C	-8	-10
94	CCOC(=O)CNS(=O)(=O)c1c(C)noc1C	3	4
95	CCOC(=O)C1CCCCN1C(=O)CN1CCCC1Cc1ccccc1 (centres undefined)	6	1
96	CCNC(=O)C1CCN(C(=O)c2cc(CN(C)Cc3ccccc3)on2)C1 (centres undefined)	-1	2
97	CC(C)Oc1cccc(C(=O)C2CCCN(Cc3cc(C(C)C)n[nH]3)C2)c1 (centres undefined)	3	12
98	COc1cccc(NS(=O)(=O)c2ccc(F)cc2[N+](=O)[O-])c1	-1	3
99	CC1(C(=O)NS(=O)(=O)c2cccc3cccnc23)CCN1C(=O)CCc1cccs1 (centres undefined)	-11	-4
100	COc1ccc(CC(=O)N2CCc3cc(OC)c(OC)cc3C2c2ccc(OC)cc2)cc1 (centres undefined)	-3	-2

no.	Compound	NPYLR7 agonist max-min	NPYLR7 agonist
101	COCCn1c(=O)c2c(nc3n2CC(C)CN3c2ccc(Oc3ccccc3)cc2)n(C)c1=O (centres undefined)	9	2
102	Cc1cc(C)n(-c2cc(NCCNC(=O)Cc3ccc(Cl)cc3)ncn2)n1	-15	-10
103	Cc1cc(-n2c(C)cc(C(=O)CSc3nc(N)cc(=O)[nH]3)c2C)no1	1	1
104	COC1=NS(=O)(=O)c2ccccc21	6	7
105	CN=c1nc(-c2ccccc2)n(-c2ccccc2)s1	-15	42
106	N#CC1(NC(=O)CSc2nncn2Cc2ccco2)CCCCC1	0	4
107	COc1ccc(NC2=CC(c3ccc(OC)c(OC)c3)N(c3ccc(OC)cc3)C2=O)cc1 (centres undefined)	-12	-10
108	O=C(c1ccoc1)N(CCN1CCCCC1)CC1CCCN(C2CCCC2)C1 (centres undefined)	-3&-4	-1&-2
109	Fc1ccc(N2CCC(N3CCC4(CCCN(CC5CC5)C4)C3)CC2)cc1F (centres undefined)	-2	4
110	O=C(CC(CC(=O)N1CCN(c2ccccn2)CC1)(c1ccccc1)c1ccccc1)N1CCN(c2ccccn2)CC1	-21	-12
111	CC(C)c1nccc(-c2n[nH]c(CCc3ccccc3)n2)n1	-8	9
112	O=C(O)c1cn2cc(-c3ccc(F)cc3)ccc2n1	5	11
113	Cn1c(SCCC#N)nnc1-c1ccc(Cl)cc1	10	5
114	CCOCCCNC(=O)c1c(O)nc2cc(C)ccn2c1=O	3	0
115	COc1cccc(C(=O)N2CCN(c3cc(Cl)nc(SCC(=O)O)n3)CC2C)c1 (centres undefined)	-5	-12
116	Cc1[nH]n(-c2ccc([N+](=O)[O-])cc2)c(=O)c1N=Nc1ccc(Oc2ccccc2)cc1	-11	11
117	COc1ccc(CCN2CC(NCc3ccc4c(c3)CCO4)CC2=O)cc1 (centres undefined)	4	6

# Only part of the results is shown (hit frequency here may not be typical).
